Compound activity deposited in PubChem BioAssay by several laboratories.
CSC inhib – blocks cancer stem cells; cancer stem cell-like cells viability, luminescence; inhibition, % at 7.5 µM; 1.1% of 300,000 active; AID 2717;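 active = mean at 75% or more and at least half the replicates too; inconclusive = mean and replicates disagree; tested in HMLE shEcad cells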;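 note: 0% = median of negative and 100% = median of positive control wells; the first replicate is given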
Env fusion inh – HIV envelope-mediated fusion inhibition. HeLa-JRFL Env/CEM21 cell fusion, luciferase. inhibition, % at 12.3 µM. 1.1% of 360,000 active. AID 651610;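 active = mean replicate inhibition score of at least 50 and every replicate individually at or above 50; inconclusive = only one of the two criteria met; inactive = mean below 50 and not all replicates reaching 50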;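 note: 0% = plate neutral controls and 100% = maraviroc near 300 nM; one replicate is shown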
PABP FP inh – blocks human PABP binding to poly(A) RNA. inhibition, % at 35 µM. P11940. 1% of 290,000 active. fluorescence polarization;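 active = 50% or more with normal probe brightness, or confirmed in later tests; inconclusive = above 50% with abnormal brightness, or retests that disagree; inactive = below 50% or failed in later tests; about a fifth of its hits are not listed in these tables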;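 note: calls also rest on retests at 20 µM and on dose response follow-up; controls were probe without protein and protein plus probe with vehicle; some compounds called inactive have numbers as strong as hits; many hits fall short of the cut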
Target sequence (P11940 whole entry, looked up): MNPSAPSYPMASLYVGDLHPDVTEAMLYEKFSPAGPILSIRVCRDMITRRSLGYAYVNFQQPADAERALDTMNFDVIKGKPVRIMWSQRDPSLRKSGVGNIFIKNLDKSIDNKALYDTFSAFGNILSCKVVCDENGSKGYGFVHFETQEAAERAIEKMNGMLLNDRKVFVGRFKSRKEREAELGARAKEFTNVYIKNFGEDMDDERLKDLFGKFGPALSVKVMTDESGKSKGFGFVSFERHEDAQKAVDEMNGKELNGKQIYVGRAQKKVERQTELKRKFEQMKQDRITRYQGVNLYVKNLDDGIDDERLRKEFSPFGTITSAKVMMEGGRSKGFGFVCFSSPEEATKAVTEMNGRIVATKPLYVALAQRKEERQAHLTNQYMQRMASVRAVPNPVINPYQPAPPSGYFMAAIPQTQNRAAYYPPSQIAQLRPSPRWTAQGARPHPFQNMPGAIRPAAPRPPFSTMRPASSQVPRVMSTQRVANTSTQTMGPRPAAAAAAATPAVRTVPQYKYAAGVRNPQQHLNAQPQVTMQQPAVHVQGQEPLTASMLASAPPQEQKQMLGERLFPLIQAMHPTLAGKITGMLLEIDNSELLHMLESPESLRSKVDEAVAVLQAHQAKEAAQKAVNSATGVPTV
eIF4H FP inh – inhibitors of RNA binding by human eIF4H; Q15056; eIF4H fluorescence polarization binding assay; inhibition, % at 35 µM; 0.94% of 290,000 active; AID 2012;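 active = 50% or more with normal probe brightness, or confirmed in later tests; inconclusive = above 50% with abnormal brightness, or retests that disagree; inactive = below 50% or failed in later tests; about a fifth of its hits are not listed in these tables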;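 note: calls also rest on retests at 20 µM and on dose response follow-up; 0% = protein and probe with vehicle and 100% = probe without protein; strong numbers were not always called active; many hits fall short of the cut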
MT1-MMP act inh – MT1-MMP (human) activation inhibition | HT1080 RFP-PRO-GFP cells, GFP/RFP ratio fluorescence, overnight; percent of plate control window, DMSO zero | GFP/RFP ratio change, % at 20 µM | 0.061% of 360,000 active;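 active = GFP/RFP ratio change of at least 30% with cell ATP level not reduced by more than half and red fluorescence within 50% of control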; note: strong numbers were not always called active
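Compound: 20 µM single dose, 1% DMSO / System: HT1080 RFP-PRO-GFP cells / Controls: DMSO and RFP-L50D-GFP cell wells / Read-out basis: GFP/RFP fluorescence ratio / Schedule: overnight compound exposure at 37 °C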
UUG fidelity – alters start codon recognition fidelity in yeast; 0.13% of 350,000 active; activity score, % at 18.7 µM; S. cerevisiae UUG-firefly luciferase reporter, luminescence/redox ratio;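 active = replicate mean at a twofold rise or more, about +100% in these data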;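 note: firefly luciferase made from a UUG start codon reports start codon fidelity; reporter light over untreated wells divided by growth signal over untreated wells; some hits fall short of that in this replicate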
Rce1 inhib – yeast Ras-converting enzyme inhibition. yeast membranes, quenched prenylated peptide cleavage fluorescence. calls only. 0.27% of 290,000 active;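 active = fall in fluorescence gain of 50% or more versus controls, with final raw signal at or below 3038400; inconclusive = same 50% fall but final raw signal above 3038400; inactive = fall in fluorescence gain under 50%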;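 note: plate controls were neutral control wells for no effect and wells lacking membranes for full effect; tested at 10 µM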
MT1-MMP act inh RFP – also measured in MT1-MMP act inh; calls as there; RFP signal change, %; measured here: RFP expression control read;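 0 = vehicle wells; hits needed this value within 50% of zero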
An asterisk follows results filed as active; & = joins results of further samples.

For COCCn1c(SCC(=O)NCCc2ccc(OC)c(OC)c2)nc2c([nH]c3ccccc32)c1=O the results were Env fusion inh 37, PABP FP inh 10, eIF4H FP inh 4, MT1-MMP act inh 2, Rce1 inhib inactive and MT1-MMP act inh RFP -3.
O=C(NCCN1C(=O)S/C(=C\c2cccnc2)C1=O)c1cc(S(=O)(=O)N2CCOCC2)ccc1F was read as CSC inhib -11, Env fusion inh 15, PABP FP inh 0, eIF4H FP inh 0, MT1-MMP act inh -6, UUG fidelity -11, Rce1 inhib inactive and MT1-MMP act inh RFP -2.
`O=C(Cc1c(F)cccc1Cl)Nc1ccon1` gave CSC inhib -24, Env fusion inh -1, PABP FP inh -7, eIF4H FP inh -1, MT1-MMP act inh 0, UUG fidelity -22, Rce1 inhib inactive and MT1-MMP act inh RFP 2.
COc1ccc(Br)cc1/C=N/NC(=O)c1nc(-c2ccccc2)n2c1CCCCC2 was read as CSC inhib 6, PABP FP inh 0, eIF4H FP inh -9, MT1-MMP act inh 12, UUG fidelity -22, Rce1 inhib inactive and MT1-MMP act inh RFP -2.
For O=[N+]([O-])c1cccc(S(=O)(=O)N/N=C\c2ccc3c(c2)OCO3)c1 the results were CSC inhib 6, Env fusion inh -7, PABP FP inh -8, eIF4H FP inh -5, MT1-MMP act inh -1, UUG fidelity -2, Rce1 inhib inactive and MT1-MMP act inh RFP 4.
For O=C(O)Cn1cc(C(=O)C2CC2)c2ccccc21 the results were CSC inhib -5, Env fusion inh -46, PABP FP inh 0, eIF4H FP inh -3, MT1-MMP act inh 1, UUG fidelity -5 and MT1-MMP act inh RFP 6.
`C#CCNC(=O)C1=C[C@H](c2ccc(Br)cc2)[C@@H](CCCO)[C@H](OCC)O1` gave CSC inhib -28, Env fusion inh 9, PABP FP inh 5, eIF4H FP inh -7, MT1-MMP act inh 0, UUG fidelity -5, Rce1 inhib inactive and MT1-MMP act inh RFP -4.
For O=C(NCCCCNC(=O)c1cccnc1Cl)c1cccnc1Cl the results were CSC inhib -5, PABP FP inh 7, eIF4H FP inh 2, MT1-MMP act inh 2, UUG fidelity -10, Rce1 inhib inactive and MT1-MMP act inh RFP 3.
For CCN(C(=O)CSc1nnnn1-c1ccc(Cl)cc1)C1CCS(=O)(=O)C1 (stereo unspecified) the results were CSC inhib 4, Env fusion inh 12, MT1-MMP act inh 2, UUG fidelity 6 and MT1-MMP act inh RFP -2.
For COc1cccc(NC(=O)CN(C)C(C)C(=O)N2CCCCC2)c1 (stereo unspecified) the results were CSC inhib -24, Env fusion inh -8, MT1-MMP act inh -3, UUG fidelity -7 and MT1-MMP act inh RFP 2.
For O=C(NCCc1ccc(Cl)cc1)C1COc2ccccc2O1 (stereo unspecified) the results were CSC inhib -15, Env fusion inh -12, PABP FP inh -7, eIF4H FP inh -6, MT1-MMP act inh 4, UUG fidelity -13, Rce1 inhib inactive and MT1-MMP act inh RFP -2.
`Cc1nc(C)c(C(=O)N(c2ccc(F)cc2)C(C(=O)NCC2CCCO2)c2ccccc2)s1` (stereo unspecified) gave Env fusion inh 1, PABP FP inh 2, eIF4H FP inh 1, MT1-MMP act inh 0, UUG fidelity -6, Rce1 inhib inactive and MT1-MMP act inh RFP 1.
For O=C(c1ccc(NC(=S)Nc2ccc(F)cc2F)cc1)N1CCOCC1 the results were CSC inhib -2, Env fusion inh 3, PABP FP inh -9, eIF4H FP inh -15, MT1-MMP act inh 5, Rce1 inhib inactive and MT1-MMP act inh RFP 2.
Screening O=c1oc(-c2cccs2)nc2ccccc12 returned CSC inhib 5, Env fusion inh -54, PABP FP inh 5, eIF4H FP inh -2, UUG fidelity -10 and Rce1 inhib inactive.
CC(=O)c1ccc(NS(=O)(=O)c2ccc3ccccc3c2)cc1 was read as CSC inhib 9, PABP FP inh 4, eIF4H FP inh 5, MT1-MMP act inh 6, UUG fidelity -6, Rce1 inhib inactive and MT1-MMP act inh RFP 1.
CCC(=O)N1CCc2cc(S(=O)(=O)CCC(=O)N(C)c3ccc(OC)cc3)ccc21 was read as CSC inhib -6, Env fusion inh -6, PABP FP inh -5, eIF4H FP inh -2, MT1-MMP act inh -1, UUG fidelity 9, Rce1 inhib inactive and MT1-MMP act inh RFP 1.
For O=C(Nc1nccs1)c1cc2cc(Cl)ccc2oc1=O the results were CSC inhib 0, Env fusion inh -17, PABP FP inh -6, eIF4H FP inh -6, MT1-MMP act inh -2, UUG fidelity -20, Rce1 inhib inactive and MT1-MMP act inh RFP 4.
Screening COc1ccc(NC2=C(Cl)C(=O)N(c3ccccc3)C2=O)c(OC)c1 returned CSC inhib -2, Env fusion inh -2, PABP FP inh -4, eIF4H FP inh -11, MT1-MMP act inh 1, UUG fidelity 1, Rce1 inhib inactive and MT1-MMP act inh RFP -1.
`O=C(Cn1cnc2c(NCc3ccccc3)ncnc21)NCCCN1CCCC1=O` gave Env fusion inh -1, MT1-MMP act inh 3, UUG fidelity -18 and MT1-MMP act inh RFP 5.
For COc1cccc(OCCn2ccnc2)c1 the results were CSC inhib 1, Env fusion inh -5, PABP FP inh -6, eIF4H FP inh -7, MT1-MMP act inh -1, UUG fidelity -5, Rce1 inhib inactive and MT1-MMP act inh RFP 2.
O=[N+]([O-])c1cccc(/C=N/n2c(-c3cccnc3)n[nH]c2=S)c1 was read as CSC inhib 0, Env fusion inh 2, PABP FP inh -1, eIF4H FP inh -3, MT1-MMP act inh 8, UUG fidelity -19, Rce1 inhib inactive and MT1-MMP act inh RFP 2.
CC(C)(C)c1cc(NCCCn2ccnc2)n2ncc(-c3ccc(Cl)cc3)c2n1 was read as CSC inhib 112*, Env fusion inh inconclusive, PABP FP inh -4, eIF4H FP inh 5, MT1-MMP act inh -20, Rce1 inhib inactive and MT1-MMP act inh RFP -18.
For O=C(/C=C/c1cccs1)c1ccc([N+](=O)[O-])cc1 the results were CSC inhib -5, Env fusion inh -4, PABP FP inh 9, eIF4H FP inh -4, MT1-MMP act inh 0, Rce1 inhib inactive and MT1-MMP act inh RFP 0.
Screening CSc1nsc(SC)c1C(=O)Nc1ccc(Cl)cc1 returned CSC inhib -10, Env fusion inh 1, PABP FP inh 1, eIF4H FP inh -10, MT1-MMP act inh -3, Rce1 inhib inactive and MT1-MMP act inh RFP -2.
O=C(NC(=S)Nc1ncc(Br)cc1Br)c1ccccc1 was read as CSC inhib -17, Env fusion inh -27, PABP FP inh 6, eIF4H FP inh -16, MT1-MMP act inh -2, UUG fidelity -20 and MT1-MMP act inh RFP -3.
O=C(NNC(=O)C1CCCCC1)c1ccc(Br)cc1 was read as CSC inhib -11, Env fusion inh 7, PABP FP inh 2, eIF4H FP inh -8, MT1-MMP act inh -2, Rce1 inhib inactive and MT1-MMP act inh RFP -2.
Screening O=C(CN1CCC(Cc2ccccc2)CC1)NC(=O)NC1CCCCC1 returned CSC inhib -17, Env fusion inh 18, PABP FP inh -2, eIF4H FP inh -9, MT1-MMP act inh -1, Rce1 inhib inactive and MT1-MMP act inh RFP 1.
CN(C)c1ccc(C2=NOC(CN3C(=O)c4ccccc4S3(=O)=O)C2)cc1 (stereo unspecified) was read as CSC inhib -4, Env fusion inh -145, PABP FP inh -2, eIF4H FP inh -2, MT1-MMP act inh -1, UUG fidelity -21, Rce1 inhib inactive and MT1-MMP act inh RFP 0.
`CC(C)COc1ccc(C(=O)NCc2ccco2)cc1` gave CSC inhib -9, Env fusion inh -39, PABP FP inh 6, eIF4H FP inh 13, MT1-MMP act inh 2, UUG fidelity -47, Rce1 inhib inactive and MT1-MMP act inh RFP 1.
Screening CN(c1ccc(F)cc1)S(=O)(=O)c1ccc(Cl)c(C(=O)OCC(=O)NC2CC2)c1 returned CSC inhib -15, Env fusion inh -3, MT1-MMP act inh -4, UUG fidelity -5 and MT1-MMP act inh RFP 3.
O=C1CC(NCc2ccc3c(c2)OCO3)C(=O)N1CCc1ccccc1 (stereo unspecified) was read as Env fusion inh 1, PABP FP inh -5, eIF4H FP inh -4, MT1-MMP act inh 6, UUG fidelity -7, Rce1 inhib inactive and MT1-MMP act inh RFP 2.
`COC(=O)c1ccccc1NC(=S)N(Cc1ccc2c(c1)OCO2)Cc1cc2ccc(OC)cc2[nH]c1=O` gave CSC inhib 36, Env fusion inh -19, PABP FP inh -1, eIF4H FP inh 0, MT1-MMP act inh -2, UUG fidelity -17, Rce1 inhib inactive and MT1-MMP act inh RFP 1.
Screening O=C(c1cccc(S(=O)(=O)N2CCCCC2)c1)N1CCc2ccccc21 returned CSC inhib -20, Env fusion inh 13, PABP FP inh 8, eIF4H FP inh -6, MT1-MMP act inh -7, Rce1 inhib inactive and MT1-MMP act inh RFP -1.
Cc1ccccc1CC1(CO)CCCN(Cc2ccccc2Cl)C1 (stereo unspecified) was read as CSC inhib 10, Env fusion inh -4, PABP FP inh -9, eIF4H FP inh -15, MT1-MMP act inh -4, UUG fidelity -13, Rce1 inhib inactive and MT1-MMP act inh RFP -3.
COc1ccc(/C=C(\C#N)c2nc3ccc(C)cc3[nH]2)cc1Oc1ccc(C(F)(F)F)cc1[N+](=O)[O-] was read as CSC inhib 22, Env fusion inh 0, PABP FP inh 24, eIF4H FP inh 45, MT1-MMP act inh -12, UUG fidelity -17, Rce1 inhib inactive and MT1-MMP act inh RFP -6.
CC(C)C(=O)Nc1ccc(Nc2ccccc2)cc1 was read as CSC inhib -15, Env fusion inh -72, PABP FP inh 13, eIF4H FP inh 6, MT1-MMP act inh 4, UUG fidelity -24, Rce1 inhib inactive and MT1-MMP act inh RFP 0.
CCOC(=O)C1=NN(c2ccccc2)C2=NC(C)=C(C(=O)OC)C(c3ccc(C)cc3)N12 (stereo unspecified) was read as CSC inhib 1, PABP FP inh 25, eIF4H FP inh -2, MT1-MMP act inh -4, Rce1 inhib inactive and MT1-MMP act inh RFP -7.
CCOC(=O)c1c(C)nc(C)c(C(=O)OCC)c1-c1ccc(OC)cc1 was read as PABP FP inh -5&-1, eIF4H FP inh -10&-8, MT1-MMP act inh -1, UUG fidelity 14, Rce1 inhib inactive and MT1-MMP act inh RFP -1.
O=C(Nc1ccc(S(=O)(=O)N2CCCC2)cc1)C1CC(=O)N(CCc2ccccc2)C1 (stereo unspecified) was read as Env fusion inh -3, MT1-MMP act inh -1, UUG fidelity -19 and MT1-MMP act inh RFP -1.
Screening O=C1CCC(=O)N1CN(C(=O)c1ccco1)c1ccccc1 returned CSC inhib 3, Env fusion inh -28, PABP FP inh -1, eIF4H FP inh -4, MT1-MMP act inh -2, UUG fidelity -8, Rce1 inhib inactive and MT1-MMP act inh RFP 3.
CC(C)C[C@H]1CNC(=S)N1C[C@H]1CCCN1C[C@H](Cc1ccc(O)cc1)N1C[C@H](CC(C)C)N(CCc2ccccc2)C1=S was read as Env fusion inh 46, MT1-MMP act inh -1, UUG fidelity -10 and MT1-MMP act inh RFP -7.
For C[C@@H]1CC=C[C@@H]2[C@H]1C(=O)N(Cc1ccccc1)[C@H]2c1cccc(C#Cc2ccccc2)c1 the results were Env fusion inh inconclusive, MT1-MMP act inh -14, UUG fidelity -3 and MT1-MMP act inh RFP -24.
Cc1ccccc1NC(=S)Nc1ccccc1 was read as CSC inhib -13, Env fusion inh -1, PABP FP inh -1, eIF4H FP inh -7, MT1-MMP act inh 4, UUG fidelity -20, Rce1 inhib inactive and MT1-MMP act inh RFP 4.
Screening CCC(c1nnc(SCC(=O)Nc2ccc(NC(C)=O)cc2)n1Cc1ccccc1)N(C)C (stereo unspecified) returned CSC inhib -17, PABP FP inh 0, eIF4H FP inh 0, MT1-MMP act inh -1, UUG fidelity -11, Rce1 inhib inactive and MT1-MMP act inh RFP 3.
